# BasE inh – inhibitors of Acinetobacter baumannii siderophore enzyme BasE; actives 0.1% (n = 84,000); inhibition, % (no concentration beside the values); purified BasE, fluorescence polarization binding displacement; AID 485350;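 active means both replicates above 25% with normal brightness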;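 further: 0% = negative plate control signal and 100% = positive plate control signal; stock transfer was 100 nL into about 30 µL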
# KSHV LANA nucl – inhibitors of KSHV LANA binding to nucleosomes. FITC-LANA1-23 / chicken nucleosome fluorescence polarization; active compounds read low. z-score (no concentration beside the values). AID 720717. actives 0.3% (n = 51,000);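 active means both repeat wells score below -2 in polarization z-score versus plate sample wells, excluding overly bright wells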;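 further: 100 nL library stock added to about 30 µL; numbers are from one replicate; some results filed as inactive read as strong as hits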
#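 Material: Purified chicken nucleosomes with FITC-labelled LANA N-terminal peptide (1-23) | Reagent: 50 nM FITC-LANA1-23 probe | Medium: TEN-BT buffer, pH 7.5 | Times: 10–45 min incubation at room temperature | Detection: Fluorescence polarization | Replication: Duplicates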
# Starred values were filed as active, the others as inactive; nt = not tested or not shown; & = joins results of further samples.
SMILES,BasE inh,KSHV LANA nucl
Cc1ccc(/C=C2\SC(=O)NC2=S)o1,45,-4.4
C=CC(=O)Nc1ccc(Br)cc1,2.0,-1
COC(=O)c1ccc(C2Nc3cccc4cccc(c34)N2)cc1,1.1,nt
COC(=O)c1ccc(OC)nc1,3.5,nt
COc1ccc(OCc2nn3c(C(F)(F)F)nnc3s2)cc1,-0.2,0.98
COCCn1c(SCC(=O)NCc2ccc3c(c2)OCO3)nnc1-c1c[nH]c2ccccc12,0.5,-2.2*
CSc1ncccc1C(=O)OCC(=O)Nc1ccccc1C(=O)NC1CC1,2.2,nt
CC1CN=C(NC2CCCCC2C)S1 (stereo not given),2.2,nt
N#Cc1cccn1-c1ccccc1F,1.3,0.88
C=CCN1C(=O)/C(=C2\SC(=S)N(CC(=O)O)C2=O)c2cc(Br)ccc21,-0.7,nt
CCO/C=C1/C(=O)N(c2ccc(OC)cc2)C(=O)c2ccccc21,0.0,nt
CCCNC(=O)c1ccccc1NS(=O)(=O)Cc1ccccc1,-2.5,2.5
O=C(O)C1CCCCC1C(=O)N1CCN(S(=O)(=O)c2cccs2)CC1 (stereo not given),-2.0,0.015
O=C(CSCc1ccccc1Cl)N/N=C/c1ccc(O)cc1O,-4.8,-0.5
COC(=O)C1C(c2ccccc2)C(C(=O)O)C1c1ccccc1 (stereo not given),-0.1,-0.44
C=CCN1C(=O)c2ccc(C(=O)OCC(=O)c3cc4ccccc4o3)cc2C1=O,-0.4,nt
O=C(O)Cc1cc(=O)[nH]c(=O)[nH]1,-0.8,nt
CN(Cc1ccccc1F)c1ccc(S(=O)(=O)N2CCCC2)cn1,3.3,nt
CCCC(=O)N(Cc1ccccc1)C(C)C,6.7,-0.84
CCCC(NC(=O)c1ccc(N(C)Cc2cnc3nc(N)nc(N)c3n2)cc1)C(=O)O (stereo not given),nt,-0.16

# Full records as entered above. Values in the order: BasE inh	KSHV LANA nucl
# Results for COCCn1c(SCC(=O)NCc2ccc3c(c2)OCO3)nnc1-c1c[nH]c2ccccc12 → 0.5	-2.2*
# Results for COc1ccc(OCc2nn3c(C(F)(F)F)nnc3s2)cc1 → -0.2	0.98

# Next results
SMILES,BasE inh,KSHV LANA nucl
CC(C(=O)NC(C)(C)C)n1c(C(F)(F)F)nc2ccccc21 (stereo not given),nt,1.1
Cn1c(=O)n(C)c2cc(/C=C(/C#N)C(=O)NCc3ccco3)ccc21,2.8,0.23
C=Cc1cccc(NC(=O)c2cccs2)c1,-0.2,-0.35
COc1ccc(CC(=O)O)c(C(=O)O)c1,2.1,nt
N#Cc1cc(C(=O)c2cc(Cl)ccc2O)c[nH]c1=O,-6.7,nt
Cc1cc(C(=O)Nc2nccs2)c(C)s1,1.4,nt
NC(=O)c1cc(-c2csc(=NC3CC3)n2/N=C/c2ccccn2)ccc1O,1.7,nt
CCCS(=O)(=O)N1CCCC1C(=O)O (stereo not given),1.0,nt
CN1CCC(=C2c3ccccc3C=Cc3ccccc32)CC1,-1.8,-0.74&-0.46&-0.24&-0.39
CC(C)c1ccc2oc3nc(N)c(C#N)cc3c(=O)c2c1,1.9,0.24
CC(C)N(CC(N)=O)Cc1cccc2ccccc12,0.8,nt
CN(C)C(=O)COc1cccc2ccccc12,1.3,2.6
O=C(/C=C/C(=O)N1CCOCC1)Nc1nccs1,0.5,nt
CCOc1ccc(C(=O)Nc2nc3cc4c(cc3s2)OCO4)cc1,0.7,-2.2*
COCc1nc2ccccc2n1C(C)c1ccccc1 (stereo not given),0.7,0.084
Cc1cccc(OCc2cc(=O)n3nc(-c4ccco4)sc3n2)c1C,12,1.1
O=C(O)c1cccc(S(=O)(=O)Nc2ccc(N3CCCCC3)cc2)c1,2.1,nt
O=C(O)CSCC(=O)Nc1ccc(Cl)cc1,-0.9,nt
COc1ccc(/C=C2\SC(N(C)c3ccc(Cl)cc3)=NC2=O)c(OC)c1OC,-1.2,nt
COc1ccc(CN=C(N)N)cc1,-0.4,nt
CN(C(=O)CSc1nnc(-c2ccccc2)n1-c1ccccc1)C1CCS(=O)(=O)C1 (stereo not given),-0.4,nt
CCOc1ccc(N=c2ccc3ccccc3n2C)cc1,-1.4,nt
COc1ccc(S(=O)(=O)N2CCCC(C(=O)N3CCN(C)CC3)C2)cc1OC (stereo not given),3.1,0.48
CC(=O)O/N=C/c1[nH]ncc1Br,5.7,0.3
Cn1ccnc1SCC(=O)c1ccccc1,4.9,nt
CN(C)C(=O)N1CCC(C(=O)c2ccc(Cl)cc2)CC1,nt,0.62
Nc1ccccc1-c1nnc(-c2ccccc2)c(=O)[nH]1,2.8,nt
C(=N\N1CCCCC1)/c1cn(-c2ccccc2)nc1-c1cccs1,1.5,nt
O=C(O)C(=Cc1nc(-c2ccccc2)n2ccccc12)C(=O)O,-0.2,nt
CC1COC2=C(N3CCN(C)CC3)C(F)=CC3C(=O)C(C(=O)O)=CN1C23 (stereo not given),2.1,nt
COc1ccc(OC)c(/C=N/N=C2\SCC(=O)N2Cc2ccco2)c1,5.7,0.062
O=C(O)c1ccc(C(=O)c2ccc3c(c2)C(=O)N(CC2CCCO2)C3=O)cc1 (stereo not given),2.4,nt
CC1Cc2ccccc2N1C(=O)COC(=O)c1ccc(Cl)cc1 (stereo not given),2.7,nt
CCS(=O)(=O)NC1CCN(Cc2ccccc2)CC1,1.5,nt
CCOC(=O)c1nc2ccccc2n(C(C)=O)c1=O,0.2,0.28
N#Cc1ccc(CN2CCCc3ccccc32)cc1,2.3,0.21
N#CC(C(=O)CN1CCN(Cc2ccccc2)CC1)c1ccccc1 (stereo not given),3.0,-0.69
CCN1C(=O)c2ccc(C(=O)Nc3cc(C)on3)cc2C1=O,1.8,-0.0035
O=S(=O)(NCC1CCCO1)c1ccc(S(=O)(=O)N2CCN(c3ncccn3)CC2)cc1 (stereo not given),0.5,-0.54
CCn1c2ccccc2c2nnc(SCC(=O)NCCc3ccc(OC)c(OC)c3)nc21,-1.4,nt
O=C(CCc1nnc2ccc(N3CCCCC3)nn12)NCCN1CCOCC1,-1.6,2.2
O=C(CN1C(=O)c2cccc3cccc1c23)N1CCCC1,0.8,0.28
CC1=C(C(=O)Nc2ccc(F)cc2)SCCO1,nt,1.1
Cc1cc(C(=O)Nc2ccc(C)c(F)c2)n[nH]1,-2.3,-0.89
CCOC(=O)c1[nH]c(C)c(C(=O)NC2CCCCCC2)c1C,2.4,-0.67
CCOC(=O)CSc1nnc(CSc2nc3ccccc3c(=O)[nH]2)n1-c1ccccc1,-1.6,-0.19
CC1CCc2c(sc3nc(COC(=O)C4=NNC(=O)CC4)[nH]c(=O)c23)C1 (stereo not given),1.0,nt
COc1cc(OC)c(C(=O)NC2CC3CCC2(C)C3(C)C)cc1OC (stereo not given),-3.9,nt
Cc1noc(C)c1C(=O)NCC1COc2ccccc2O1 (stereo not given),1.1,nt
NC(=O)C1CCN(C(=O)COc2ccc3ccccc3c2)CC1,-4.4,0.52

# Going on with the list.
SMILES,BasE inh,KSHV LANA nucl
COc1ccc2nc(SCC(=O)c3ccc(O)c(O)c3)[nH]c2c1,12,0.7
CCC1CCCCN1C(=O)c1cccs1 (stereo not given),1.9,-0.27
Cc1cc(C)nc(NNC(=S)NCc2ccc3c(c2)OCO3)n1,1.6,nt
O=c1c2cccc3c2c(nn1CN1CCCCC1)-c1ccccc1-3,0.7,nt
O=C1CCCCc2ccccc21,2.9,nt
CC1CCCN(C(=O)c2ccc3c(=O)n4nc(Nc5ccccc5)sc4nc3c2)C1 (stereo not given),1.8,0.4
CNC(=O)Cn1ncc2c3ccccc3n(Cc3cccc(Cl)c3)c2c1=O,-27,4.4
Nc1ccc2oc(Cc3ccc(Cl)cc3)nc2c1,0.1,0.23
C#CCSc1nnc(-c2ccccc2)o1,-1.2,-0.48
COc1ccc(-c2cn[nH]c2C)cc1OC,nt,0.004
Cc1c(C(=O)OCC(=O)NC2(C#N)CCCCC2)sc2nc3n(c(=O)c12)CCC3,-0.3,nt
CC(C)(C)c1cc2nc(C(F)(F)F)cc(N3CCN(C(=O)c4ccccc4)CC3)n2n1,0.8,-1.4
O=C(Nc1ccc(OCc2ccccc2)cc1)Nc1cccnc1,13,-0.017
Cc1nc(/N=C(/N)Nc2cccc(Cl)c2C)[nH]c(=O)c1Cc1ccccc1,0.9,-0.77
CC(C)c1nc2ccccc2n1C(C)c1ccccc1 (stereo not given),-0.4,-0.89
CSc1scc(-c2cc(Cl)cc(Cl)c2)c1C#N,1.1,nt
O=C1N(c2ccccc2)C2CS(=O)(=O)CC2N1c1ccccc1 (stereo not given),-1.0,0.31
Cc1ccc(N2C(=O)CSC2=S)c(C)c1,-1.8,-1.6
c1ccc(-c2nnn3c2nc(N2CCCCC2)c2ccccc23)cc1,-0.3,1.1
Cc1ccc(-c2noc(CCCCCN=Cc3c(O)[nH]c(=O)[nH]c3=O)n2)cc1,-1.1,nt
Cc1oc2nc[nH]c(=O)c2c1C(=O)Nc1cccc(C(F)(F)F)c1,-4.1,nt
COC(=O)N/N=C/c1c[nH]c2ccccc12,2.8,-0.33
Cc1cc(C)c2nc(C(F)(F)F)nc(N3CC(C)OC(C)C3)c2c1 (stereo not given),-1.6,0.39
Cc1ccc(/C=N/N2C(=O)c3ccccc3C2=O)o1,0.0,nt
O=C(CCN1C(=O)C2C3C=CC(C3)C2C1=O)Oc1cccc2cccnc12 (stereo not given),20,0.66
Cc1ccc2[nH]c(=O)c(CNCCCO)cc2c1,1.4,0.0015
COc1ccc(S(=O)(=O)C2CS(=O)(=O)CC2O)cc1 (stereo not given),0.6,nt
CC(=O)Nc1cc(C(N)=O)cc(C(N)=O)c1,-0.9,-0.21
Cc1nn(C)c(C)c1NC(=O)c1ccc(Cl)cc1,3.6,nt
O=C1C2CC=CCC2C(=O)N1Nc1ccccc1 (stereo not given),-0.1,nt

# Among those listed so far, eight have a thiophene ring, fused or not.
SMILES,BasE inh,KSHV LANA nucl
O=C(O)C1CCCCC1C(=O)N1CCN(S(=O)(=O)c2cccs2)CC1 (stereo not given),-2.0,0.015
C=Cc1cccc(NC(=O)c2cccs2)c1,-0.2,-0.35
Cc1cc(C(=O)Nc2nccs2)c(C)s1,1.4,nt
C(=N\N1CCCCC1)/c1cn(-c2ccccc2)nc1-c1cccs1,1.5,nt
CC1CCc2c(sc3nc(COC(=O)C4=NNC(=O)CC4)[nH]c(=O)c23)C1 (stereo not given),1.0,nt
CCC1CCCCN1C(=O)c1cccs1 (stereo not given),1.9,-0.27
Cc1c(C(=O)OCC(=O)NC2(C#N)CCCCC2)sc2nc3n(c(=O)c12)CCC3,-0.3,nt
CSc1scc(-c2cc(Cl)cc(Cl)c2)c1C#N,1.1,nt

# (continued)
SMILES,BasE inh,KSHV LANA nucl
CC(C)CNC(=O)CSc1nnc(-c2ccc(Cl)cc2)n1N,-1.1,nt
CCCNC(=O)c1nnc(Cc2ccccc2OC)o1,2.7,0.19
Cc1nc(SC(C#N)Cc2ccccc2)c2ccccc2n1 (stereo not given),1.1,nt
COc1ccc(N2CCN(C(=O)c3ccc(NS(=O)(=O)c4ccc(F)c(F)c4)cc3)CC2)cc1,1.8,nt
CCOC(=O)CCn1cnc2cc(Br)ccc2c1=O,4.6,nt
O=C(Nc1nnc(-c2ccc3c(c2)CCCC3)o1)c1ccc(NS(=O)(=O)c2ccc(F)cc2)cc1,0.5,-0.003
COC(=O)C1=C(C)N=c2s/c(=C/c3ccco3)c(=O)n2C1c1ccc(OC)cc1 (stereo not given),-4.5,-0.14
Cn1cc(NC(=O)NCCSc2c[nH]c3ccccc23)c2ccccc21,-1.7,-0.11
CCOC(=O)c1c(S(=O)(=O)Nc2ccc3c(c2)OCCO3)c(C)n(C)c1C,-1.4,nt
CCc1cccc2c1NC(=O)C21OCCO1,-0.8,nt

# KSHV LANA nucl, hit marks shown above
canonical_smiles	KSHV LANA nucl
COCCn1c(SCC(=O)NCc2ccc3c(c2)OCO3)nnc1-c1c[nH]c2ccccc12	-2.2*
CCOc1ccc(C(=O)Nc2nc3cc4c(cc3s2)OCO4)cc1	-2.2*

# (listing goes on)
SMILES,BasE inh,KSHV LANA nucl
COCCNC(=O)c1cn(Cc2cccc3ccccc23)nn1,-0.6,-0.6
CCOC(=O)c1c(C)[nH]c(C)c1S(=O)(=O)N1CCCCC1,0.9,nt
O=S(=O)(NCc1ccco1)c1ccc(Cl)cc1,1.8,-0.43
Cc1cc(NCC2CCCO2)n2c(nc3ccccc32)c1C#N (stereo not given),-7.6,-0.83
COc1ccccc1C(=O)Nc1ccccc1SCc1cc(=O)n2nc(C3CC3)sc2n1,1.1,1.3
O=C(NC12CC3CC(CC(C3)C1)C2)N1CC2Cc3cccc(=O)n3C(C2)C1 (stereo not given),1.8,-0.84
CC(=O)Nc1ccc(S(=O)(=O)NCCC(=O)Nc2nc(C)cs2)cc1,-1.5,nt
Cc1noc(C)c1C(=O)N(C)Cc1ccccc1,2.2,-0.52
O=S1(=O)CCN(CC2COc3ccccc3O2)CC1 (stereo not given),nt,-0.055
CC(Oc1ccc2c(=O)c(-c3ccc(Cl)cc3)coc2c1)C(=O)O (stereo not given),2.3,nt
CCOC(=O)C=C1CCN(c2ncc(C(F)(F)F)cc2Cl)CC1,nt,-1.3
COc1cccc(COC(=O)c2ccc3c(c2)C(=O)N(Cc2ccncc2)C3=O)c1OC,2.5,nt
O=C(O)c1ccc(Sc2ccccc2C(=O)O)c(C(=O)O)c1,-0.8,0.13
COc1ccc(-n2c(C)nnc2SCC(=O)NCc2cc3cc(Cl)ccc3n2C)cc1,1.1,-3
COc1ccc(C(C(=O)NC2CCCC2)N(Cc2ccc(C)cc2)C(=O)c2ccn[nH]2)cc1OC (stereo not given),-2.1,-0.095

# Compound activity: PubChem BioAssay, ICCB-Longwood Screening Facility, Harvard Medical School

# Some of the compounds tested, so the mix of outcomes need not match the whole.
